# gsp antagonist: antagonizes gsp, the McCune-Albright syndrome mutation. 340,000 compounds, 0.4% hits. gsp-mutant cells, cAMP HTRF, 30 min; control for the full effect not named in the record. Potency, µM (highest dose often 76.9 µM), for the others: at the highest dose activity change, negative = inhibition, usual class: inhibitors; active = falling curve of any shape with a large fitted effect; inconclusive = falling curve, mostly with a smaller effect; inactive = flat or rising curve; cell line not stated here;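 note: intracellular cAMP measured with PDE inhibitor Ro 20-1724 present during compound exposure; potency is the fitted concentration of half-maximal effect; % is set by controls: 0 for no effect and ±100 for the full control effect; nearly all actives have a fitted effect of over 65% in size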
#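 G418-selected cells were plated in DMEM/10% FBS for 16-24 h at 37C, then treated with compounds plus the PDE inhibitor […] (300 uM solution added) for 30 min at 37C. Intracellular cAMP was measured by HTRF after 30 min lysis at room temperature.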
# gsp ag: agonists of gsp mutant (McCune-Albright syndrome); 340,000 compounds, 0.13% hits; Potency, µM (titrated, usually from 76.9 µM), without a hit: at the highest dose activation (cAMP increase), hits mostly activators; gsp mutant cells, cAMP HTRF, 30 min; control for the full effect not named in the record; active = well fitted activation curve with a large enough effect; inconclusive = small, poorly fitted or top-dose-only effect, or another doubt; inactive = no such curve, though single readings can be large or run the other way; cell line not stated here;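 note: phosphodiesterase inhibitor Ro 20-1724 added with compounds to block cAMP breakdown; potency is the fitted concentration of half-maximal effect; nearly all actives have a fitted effect of over 60% in size; about a fifth of the inactives were tested at one dose only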
#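 Cells in DMEM/10% FBS with G418 were pretreated with compounds in DMSO plus […] (300 uM stock) for 30 min at 37C. cAMP was measured by HTRF (cAMP-d2 plus anti-cAMP antibody-K) after 30 min at room temperature.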
# TRPML1 blocker: inhibitors of human TRPML1 channel | TRPML1-inducible cells, Ca2+ dye fluorescence, FDSS; active compounds read low; inhibition of EC80 agonist-evoked calcium signal | Q9GZU1 | activity change, negative = inhibition, % (test concentration not listed) | AID 624415 | 390,000 compounds, 0.02% hits; in the data active means activity change below about -50%; inconclusive means about -30% to -50%; inactive means above about -30%;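 note: stimulus is agonist 54-4 at its EC80 concentration; % is set by controls: 0 for no effect and ±100 for the full control effect; compound concentration not given in the record; the text of the record puts the active cut at -80%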
# Target sequence (Q9GZU1 whole entry, looked up): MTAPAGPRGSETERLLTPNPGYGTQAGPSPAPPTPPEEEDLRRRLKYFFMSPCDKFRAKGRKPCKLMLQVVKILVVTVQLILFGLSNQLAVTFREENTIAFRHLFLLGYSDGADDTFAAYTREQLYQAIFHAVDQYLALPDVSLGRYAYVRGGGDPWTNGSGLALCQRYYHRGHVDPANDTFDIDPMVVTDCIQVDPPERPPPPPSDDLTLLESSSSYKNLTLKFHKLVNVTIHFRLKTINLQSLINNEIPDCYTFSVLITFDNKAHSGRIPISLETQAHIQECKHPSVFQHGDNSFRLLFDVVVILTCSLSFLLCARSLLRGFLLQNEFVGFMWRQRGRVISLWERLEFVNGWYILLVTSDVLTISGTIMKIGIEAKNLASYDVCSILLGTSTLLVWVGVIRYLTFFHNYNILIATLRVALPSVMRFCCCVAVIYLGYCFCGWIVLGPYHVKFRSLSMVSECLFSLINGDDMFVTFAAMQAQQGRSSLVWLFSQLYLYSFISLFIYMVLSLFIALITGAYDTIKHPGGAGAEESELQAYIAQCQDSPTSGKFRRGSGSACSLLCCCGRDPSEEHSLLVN
#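 Tet-induced TRPML1-DL cells loaded with Ca8 no-wash calcium dye were read kinetically on FDSS. Compound addition was followed by EC80 agonist 54-4 (4 uM final); inhibition was read over 110 s.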
# Sfp inh: inhibitors of Bacillus subtilis Sfp phosphopantetheinyl transferase. Potency, µM, inactives show max response, negative = inhibition, most hits filed as inhibitors. AID 1490. Q9F4F7. 310,000 compounds, 3.5% hits. Biochemical Sfp PPTase activity, qHTS; active = well fitted inhibition curve with a large enough effect; inconclusive = small, poorly fitted or top-dose-only effect, or another doubt; inactive = no such curve, though single readings can be large or run the other way;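 note: the enzyme is Sfp with the accession as filed and its product quenches rhodamine fluorescence; potency is the fitted concentration of half-maximal effect; 0% = enzyme reaction without inhibitor and -100% = no enzyme wells; top concentration of the series not given in the record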
#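 Reaction rates are the 30-min fluorescence difference (ex 525, em 598 nm) in wells containing 15 nM Sfp, 5 uM rhodamine-CoA and 12.5 uM BHQ-2-YbbR at pH 7.6 with 10 mM MgCl2.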
# Menin MLL FP FL: displaces fluorescein MLL peptide from human menin. FP activity change, % at 61.4 µM. AID 1766. Fluorescence polarization, fluorescein-MLL peptide displacement from menin. 290,000 tested, under 10 active; inconclusive = falling polarisation curve, or a change in total fluorescence; inactive = total fluorescence flat and polarisation flat or rising; no compound was filed as active; the % refers to the polarisation; negative = inhibition;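 note: % of control where 0% means no effect; inhibitors lower the polarisation; unlabelled MLL peptide was the positive control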
# TRPV1 potentiator: potentiators of human vanilloid receptor 1 (TRPV1); 320,000 compounds, 0.02% hits; TRPV1-expressing cells, Fluo-8 calcium influx, capsaicin EC20 potentiation; host cell line not named in the record; control for the full effect not named in the record; Q8NER1; potentiation, % at 8.33 µM; active means potentiation above 80%; inconclusive means 30% to 80%; inactive means below 30%; note: 0% is about no effect
#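 Cells expressing TRPV1 were dye-loaded with Fluo-8 and read kinetically: 10 s baseline, 3 min after compound (agonist portion), then 2 min after EC20 capsaicin (allosteric enhancer portion). Calcium-bound dye fluorescence at 480/520 nm.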
# ClpP mod: qHTS Assay for Activators of ClpP; 340,000 compounds, 1.9% hits; purified B. subtilis ClpP, FRET peptide cleavage, 20 min; Potency, µM (series often up to 57.5 µM), inactives show at the highest dose activity change, negative = active; active = well fitted falling curve with a large enough effect; inconclusive = small, poorly fitted or top-dose-only effect; inactive = no such curve, though single readings can be large or run the other way; note: potency is the fitted concentration of half-maximal effect; the source files actives as falling curves though it sought activators and does not explain the sign; nearly all actives have a fitted effect of over 65% in size; many hits overshoot -100%
# Target sequence (P80244 whole entry, looked up): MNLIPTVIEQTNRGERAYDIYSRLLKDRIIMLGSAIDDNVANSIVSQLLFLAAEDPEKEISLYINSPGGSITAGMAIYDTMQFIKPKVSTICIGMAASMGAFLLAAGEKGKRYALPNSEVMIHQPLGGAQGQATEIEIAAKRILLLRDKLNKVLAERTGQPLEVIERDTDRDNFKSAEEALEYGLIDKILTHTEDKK
#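 FRET quenching reversal measured ClpP activation: 10 microg/mL B. subtilis ClpP at pH 8 with the FRET-FV decapeptide, read at 430 nm after 320 nm excitation. The 20-min minus 0-min signal was scaled between DMSO/no-enzyme wells and ADEP (5.8 microM final).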
# * marks the source's active call; other numbers are inactive results; ? = inconclusive; / = not tested or not shown; & = joins results of further samples; [ ] = dose if it differs, or a comment. Rows were taken by chance. Share with any hit: about 4.9%.
SMILES,gsp antagonist,gsp ag,TRPML1 blocker,Sfp inh,Menin MLL FP FL,TRPV1 potentiator,ClpP mod
COc1cc(-c2noc(C)c2-c2ccc(N(C)C)nc2)cc(OC)c1OC,15%,-22%,-21,-4%,-9.5,-22,-3.3%&-4.8%
CCOc1ccc(OCC)c(NC(=O)C2CCCN(S(=O)(=O)c3c(C)n[nH]c3C)C2)c1 (stereo not given),-21%,1%,-3,2%,-1.5,-13,-0.6%
CCCOC1CCCN(Cc2nc(-c3cnccn3)no2)C1 (stereo not given),8%,14%,-10,10%,0.5,10,/
CCC(=O)N1CCc2cc(Br)c(S(=O)(=O)CCC(=O)NCCOC)cc21,-4%,-44%[inhibitor],2,/,/,/,/
C(=N\n1cnnc1)/c1nc2ccccc2[nH]1,4%,5%,-19,6%,0.4,-14,16µM*
CCN(Cc1ccccc1)C(=O)C1CCN(CC2CC=CCC2)CC1 (stereo not given),9%,-19%,-1,9%,2.7,4,-1.3%
COc1ccc(CCn2c(=N)c(C(=O)NC3CCCC3)cc3c(=O)n4cccc(C)c4nc32)cc1,-5%,8%,12,4%,/,-26,-0.4%
CCSCCOC(=O)C1=C(C)NC(=O)NC1c1cccc(OC)c1OC (stereo not given),-12%,-56%[inhibitor],-8,1%,3.2,4,-0.1%
CCOC(=O)NC(=O)COC(=O)CNC(=O)c1ccc(OCC)c(OCC)c1,8%,0%[15.4 µM],46,-6%,8.3,0,-0.1%
COc1ccc(C2NC(=O)NC(C)=C2[N+](=O)[O-])cc1OC (stereo not given),-5%,9%,/,10%,3.5,-5,1.3%
COC(=O)[C@H](CCSC)NC(=O)NCCc1ccccc1F,12%,10%,1,16%,1.7,1,-0.2%
Cc1cc(C)nc(N2CCC(C(=O)NCc3cccc(C(F)(F)F)c3)CC2)n1,5%,14%,13,13%,1.8,3,-3.9%
COc1ccc(OC)c(C2C3=C(CCCC3=O)Nc3c2c(=O)n(C)c(=O)n3C)c1 (stereo not given),6%,15%,3,24%,-1.0,-6,3.3%
O=C1CC(C(=O)Nc2ccc(F)c(Cl)c2)N=C(N2CCCCC2)N1 (stereo not given),-7%,-16%,-3,9%,2.0,-1,1.5%
COC(C[C@@H]1O[C@@H]1[C@@H](O)[C@H](C)OCc1ccccc1)OC,6%,0%,-7,18%,-0.6,12,0.2%
O=C(NCCc1c[nH]c2ccccc12)C(=O)Nc1ccccc1,-5%,-51%[inhibitor],-19,22%,-3.4,7,-0.3%
Cc1ccc(OC(=O)N(C)C[C@@H]2OCc3cn(nn3)CCCC(=O)N([C@H](C)CO)C[C@H]2C)cc1,/,-18%,-7,/,/,/,-1.2%
COc1ccc(NC(=O)CN2C(=O)COc3ccc(C)cc32)cc1,-7%,-2%,10,-1%,0.2,1,1.6%
CCNC(=O)n1nccc1C(C)Oc1ccccc1 (stereo not given),10%,-29%,-8,5%,8.6,-7,-0.3%
Cc1cccc(NC(=O)CN2CCOCC2)c1C,4%,?,/,11%,1.1,-1,-2.1%
CCc1nc2ccc(C(=O)Nc3nnc(C)s3)cc2nc1CC,-17%,-30%[15.4 µM],8,18%,-1.4,5,/
CSc1nc(N(C)CCO)c2sc3nc(-c4ccco4)c4c(c3c2n1)CCC4,-14%,?,0,79µM*,8.3,3,-12%
OCC1(Cc2cccc(Cl)c2)CCCN(Cc2ccc3cc(F)ccc3n2)C1 (stereo not given),-11%,-15%,-2,1%,4.1,6,/
Cc1cccc(NS(=O)(=O)c2cccc(C(=O)NCc3ccccc3CN3CCOCC3)c2)c1,-23%,-1%,-12,/,/,13,1.1%
COC(=O)c1ccc(C(=O)OC)c(NC(=O)CSc2cccc[n+]2[O-])c1,1%,37%,5,-103%,1.6,8,-9.5%
Cc1ccc2nc(-c3ccc(SCC(=O)Nc4cc(C)on4)nc3)[nH]c2c1,-24%,-28%,7,-5%,-3.9,-5,32µM*
CCOc1ccc2[nH]c(=O)c(CN(Cc3ccco3)C(=O)c3ccc(Br)cc3)cc2c1,?,-11%,-1,40µM*,0.2,4,?
CCN(CC)C(=O)C1CCCN(c2ccc([N+](=O)[O-])cc2/C=N/NC(=O)c2ccc([N+](=O)[O-])cc2)C1 (stereo not given),4%,18%,1,11%,-0.4,/,-1.4%
O=C(NN=C1CCCCC1)c1ccccc1OCc1ccc(F)cc1,-6%,-145%[inhibitor],-2,1%,4.9,0,0.5%
Cc1nn(Cc2ccccc2)c(Cl)c1/C=C/C(=O)OCC(=O)NC(C)C(C)C (stereo not given),-5%,1%,6,1%,-3.6,-4,-0.6%

# An excerpt from above in order of formula weight, high to low.
SMILES,gsp antagonist,gsp ag,TRPML1 blocker,Sfp inh,Menin MLL FP FL,TRPV1 potentiator,ClpP mod
COc1ccc(OC)c(C2C3=C(CCCC3=O)Nc3c2c(=O)n(C)c(=O)n3C)c1 (stereo not given),6%,15%,3,24%,-1.0,-6,3.3%
O=C1CC(C(=O)Nc2ccc(F)c(Cl)c2)N=C(N2CCCCC2)N1 (stereo not given),-7%,-16%,-3,9%,2.0,-1,1.5%
CCc1nc2ccc(C(=O)Nc3nnc(C)s3)cc2nc1CC,-17%,-30%[15.4 µM],8,18%,-1.4,5,/

# Later entries:
SMILES,gsp antagonist,gsp ag,TRPML1 blocker,Sfp inh,Menin MLL FP FL,TRPV1 potentiator,ClpP mod
CCCCOc1ccc(C(=O)Nn2cnnc2)cc1,2%,-1%,13,6%,-0.7,?,0.1%
Cc1nnc(SCC(=O)NC2CC2)s1,-4%,5%,-9,9%,/,19,0.2%
CCN(CC)c1ccc(S(=O)(=O)N2CCOCC2)cc1NC(=O)CNCc1cccc(Cl)c1,?,-6%,14,/,/,/,-12%
CC(C)C[C@H](N)c1nnc(S(=O)(=O)Cc2cccc(F)c2)o1,3%,0%,12,18µM*,1.4,-3,-0.2%
O=C(CSc1nnc(NC(=O)c2cccc(F)c2)s1)NC1CC1,-5%,7%[15.4 µM],26,13%,-1.0,9,/
COC(=O)CN1C(=O)COc2ccc(S(=O)(=O)NCc3ccc(F)cc3)cc21,7%,-11%,0,15%,1.6,-9,/
COCCNC(=S)N(CCc1c(C)[nH]c2ccc(Cl)cc12)Cc1cccs1,?,0%,20,20%,-0.7,2,/
COc1cc(-c2cc(C(F)(F)F)n3ncc(C(=O)O)c3n2)cc(OC)c1OC,-3%,4%,11,19%,-4.9,-1,-2.4%
Cn1c(SCC(=O)NNC(=O)c2ccccc2O)nnc1-c1ccccc1,-13%,-3%[15.4 µM],13,25%,-0.9,-14,/
COc1cc(OC)c(C(=O)CCC(=O)O)cc1OC,-2%,-44%,-19,0%,4.0,2,-3.8%
CCCC(=O)N=c1sc2cccc(F)c2n1C,8%,22%,18,17%,2.0,13,-2.9%
COc1ccc(-c2nnc3ccc(SCC(=O)Nc4nc5ccc(C)cc5s4)nn23)cc1OC,-2%,2%,1,17%,3.4,6,-1.2%
O=C1CN(C(=O)CSc2nnc3ccccn23)c2ccccc2N1,2%,-32%[inhibitor],-17,5%,5.4,4,-3.5%
CCN(CC)S(=O)(=O)c1ccc(NC(=O)COC(=O)c2ccc(NC(=O)CC#N)cc2)cc1,-10%,-47%[inhibitor],0,22%,21,-17,0.9%
CN1CCC=C(C(=O)N2c3ccccc3Sc3ccc(Cl)cc32)C1,1%,6%,39,6%,-2.1,-9,/
CCOC(=O)/C(C)=N/NC(=O)c1cccc([N+](=O)[O-])c1,3%,-5%[15.4 µM],2,-15%,-4.9,7,/
COc1cc2cc(C)c(Br)c(OC)c2cc1OC,-8%,-11%,9,/,/,/,-2.7%
Cc1[nH]c(=S)sc1Cc1ccc(F)cc1,6%,-2%,9,-19%,5.4,-20,0.7%
CC1=C(SCc2ccccc2)C(=O)c2ccccc2C1=O,-12%,11µM*,2,/,/,/,/
Cc1c(NS(=O)(=O)CC23CCC(CC2=O)C3(C)C)c(=O)n(-c2ccccc2)n1C (stereo not given),7%,-10%,-5,8%,1.0,/,0.4%
CCc1cccc(NC(=O)CCNS(=O)(=O)c2ccc3[nH]c(=O)oc3c2)c1,8%,3%,1,10%,1.8,-2,-2.2%
Cc1cc(NC(=O)CSc2nnc(Nc3ccccc3F)s2)no1,8%,-26%,13,3%,0.2,3,1.7%
Cc1cc(=O)oc2cc(NC(=O)c3ccccc3C(=O)O)ccc12,7%,10%[15.4 µM],-6,9%,4.1,29,-0.7%
O=C(Cc1ccccc1)Nc1cc(Cl)ccc1Sc1ccccc1,-3%,-2%,5,7%,3.0,-2,?
O=C(O)c1ccccc1C(=O)c1cccs1,-1%,27%,19,10%,-2.7,-8,1.4%
CCCCS/C(N)=N/N=C/c1cc(C)ccc1O,7%,?,-10,21%,3.8,-1,-1.7%
COc1ccc(NC(=O)C(=S)NC2CCCCC2)cc1,-2%,-3%[15.4 µM],0,-6%,2.1,?,?
C(=C\c1ccccc1)/CNn1cnnc1,25%,0%,-11,19%,8.3,5,1.1%
Nc1nonc1-c1noc(COc2ccccc2Cl)n1,13%,12%,6,11%,1.2,1,-0.1%
O=C(C1CCN(S(=O)(=O)c2cccc3nsnc23)CC1)N1CCCCC1,14%,11%,3,9%,/,13,-0.6%
CCc1ccc(S(=O)(=O)Nc2ccccn2)cc1,6%,-54%[inhibitor],-9,8%,-3.7,6,?
COc1cc(/C=N/N2CCN(Cc3ccc(Cl)cc3)CC2)cc(Br)c1O,-6%,-2%,2,-4%,-1.5,26,-4.0%
Cc1ccccc1C(=O)NC(C)C1CC2CCC1C2 (stereo not given),11%,-10%[15.4 µM],-13,2%,/,0,/
Cc1ccc(NCCC(=O)c2cccs2)cc1C,-10%,-8%[15.4 µM],26,11%,1.6,-15,-1.8%
Cc1cc(N2CCN(c3ccc(F)cc3)CC2)n2ncnc2n1,5%,4%,6,22%,0.8,-8,-0.3%
O=C(CCc1ccccc1)Nc1cc2c3c(c1)CC(=O)N3CCC2,3%,4%,22,/,/,-13,1.4%
CCN1CCN(c2ccc(S(=O)(=O)N3CCOCC3)cc2NC(=O)c2ccccc2SC)CC1,9%,1%[15.4 µM],-2,/,/,-8,-0.5%
Cc1nccn1CC(=O)O,6%,10%,-10,17%,2.0,-7,0.4%
